# Source: PubChem (several laboratories)
# XIAP antagonists – XIAP antagonists, biochemical, IAP family, fluorescence polarization (AID 1018) | displacement, % at 20 µM, or IC50 in µM where a hit was titrated | XIAP BIR domain, fluorescence polarization peptide displacement; higher % means a stronger effect | hit rate 0.007% among 200,000; in the data active = displacement above about 50%; note: a part of the inactive calls stands beside numbers as strong as those of hits
# P. falciparum M17LAP – P. falciparum M17LAP inhibitors, primary screen, biochemical, fluorogenic H-Leu-NHMec substrate, 1536-well (AID 1619). recombinant M17LAP, H-Leu-NHMec fluorogenic kinetic assay; higher % means a stronger effect. hit rate 0.38% among 220,000. inhibition, % at 30 µM; hits with a dose series show IC50 in µM;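 active = compound inhibiting the enzyme by more than half at any dose during confirmatory dose-response retesting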;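 note: plate controls were full reaction with DMSO carrier for no effect and no enzyme background for full effect; strong numbers were not always called active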
# P. falciparum M1AAP – P. falciparum M1AAP inhibitors, biochemical, fluorogenic H-Leu-NHMec substrate, 1536-well (AID 1445); recombinant M1AAP, H-Leu-NHMec fluorogenic kinetic assay; higher % means a stronger effect; inhibition, % at 30 µM, or IC50 in µM where a hit was titrated; hit rate 0.42% among 220,000;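 active = primary inhibition above the hit cutoff, then over 50% inhibition at one or more dose response concentrations, cut at about 23% in these data, passing the limit was not always enough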;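 note: plate controls were DMSO full reaction for no effect and no enzyme background for full effect; strong numbers were not always called active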
# Siah-1 displacement – Siah-1 peptide-binding antagonists, primary screen, biochemical, fluorescence polarization, rhodamine-plectin, uHTS (AID 1817). displacement, % at 20 µM, or IC50 in µM where a hit was titrated. Siah-1 / rhodamine-plectin peptide fluorescence polarization; higher % means a stronger effect. hit rate 0.02% among 290,000;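 active = displacement of at least 50% at 20 µM, with a fluorescence ratio check between 0.3 and a set limit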;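 note: plate controls were Siah plus tracer with DMSO for no effect and tracer alone without Siah for full effect; strong numbers were not always called active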
# human PMI inhibitors – human PMI inhibitors, high substrate, primary screen, biochemical, fluorescence intensity, high mannose 6-phosphate (AID 1220); recombinant PMI enzyme, coupled fluorescence intensity; higher % means a stronger effect; inhibition, % at 20 µM, or IC50 in µM where a hit was titrated; hit rate 0.66% among 190,000; in the data active = inhibition above about 50%
# Numbers without * were called inactive; . = no result given; & = joins results of further samples. This is a subset, so the mix of outcomes need not match the whole.
item | mol | XIAP antagonists | P. falciparum M17LAP | P. falciparum M1AAP
1 | Cc1ccc(NC(=O)c2sccc2SCc2cccc(C(F)(F)F)c2)cc1 | 0.3% | -5.7% | 5.8%
2 | Oc1ccc(Br)cc1-c1ccn[nH]1 | -0.2% | 19.8% | 10.8%
3 | CN1/C(=C/C=N/NC(=O)c2ccc([N+](=O)[O-])cc2)C(C)(C)c2ccccc21 | -2.9% | 13.9% | -2.4%
4 | COc1cccc(C=NCC(C)N=Cc2cccc(OC)c2O)c1O (configuration not stated) | 15.1% | 10.9% | 10.6%
5 | Oc1c(Cl)cc(Cl)cc1Sc1cc(Cl)cc(Cl)c1O | -11.7% | 39.7% | 42.9µM*
6 | COCc1cc(C)nc(SCC(=O)c2ccc(O)c(O)c2)c1C#N | -2.3% | -56.2% | 11.2%
7 | C=C(CC)C(=O)c1ccc(OCC(=O)O)c(Cl)c1Cl | -4.6% | 16.1% | 17.8%
8 | Cc1ccc(C(C[N+](=O)[O-])c2c(-c3ccccc3O)[nH][nH]c2=O)cc1 (configuration not stated) | -3.8% | 33.7% | -2.2%
9 | NC(=S)c1cc2ccc(O)cc2oc1=O | -9.0% | -62.9% | -5.7%
10 | C/C(=N\N=C(N)N)c1ccc(Cl)c(Cl)c1 | -0.2% | 1.2% | 0.2%
11 | Nc1nnc(-c2cccc(Cl)c2Cl)c(N)n1 | -3.2%&-5.0% | 12.6%&-1.8% | -2.7%&3.6%
12 | CN[C@@H]1CC[C@H](c2ccc(Cl)c(Cl)c2)c2ccccc21 | . | . | .
13 | Oc1c(Cl)cc(Cl)c(Cl)c1Cc1c(O)c(Cl)cc(Cl)c1Cl | -6.5% | 19.5% | 58µM*
14 | N#Cc1ccc(CNC(=O)N2CCOCC2)cc1 | . | . | .
15 | O=C(NC1CCCC1)c1ccc(Cl)s1 | . | . | .

item | Siah-1 displacement | human PMI inhibitors
1 | 2.0% | 13.0%
2 | -1.1% | -4.5%
3 | -0.2% | -7.8%
4 | 2.7% | 52.3%*
5 | 17.4% | -16.4%
6 | -3.2% | 9.2%
7 | 1.5% | -14.2%
8 | -1.3% | 1.1%
9 | 3.5% | -17.3%
10 | 1.4% | 2.8%
11 | 6.9%&2.8% | 0.1%&-4.3%
12 | 0.4% | .
13 | 50.4% | -4.5%
14 | 1.0% | .
15 | 1.9% | .

# Six entries already listed, sorted by the value under Siah-1 displacement, largest number first:
item | mol | XIAP antagonists | P. falciparum M17LAP | P. falciparum M1AAP
5 | Oc1c(Cl)cc(Cl)cc1Sc1cc(Cl)cc(Cl)c1O | -11.7% | 39.7% | 42.9µM*
9 | NC(=S)c1cc2ccc(O)cc2oc1=O | -9.0% | -62.9% | -5.7%
4 | COc1cccc(C=NCC(C)N=Cc2cccc(OC)c2O)c1O (configuration not stated) | 15.1% | 10.9% | 10.6%
14 | N#Cc1ccc(CNC(=O)N2CCOCC2)cc1 | . | . | .
12 | CN[C@@H]1CC[C@H](c2ccc(Cl)c(Cl)c2)c2ccccc21 | . | . | .
2 | Oc1ccc(Br)cc1-c1ccn[nH]1 | -0.2% | 19.8% | 10.8%

item | Siah-1 displacement | human PMI inhibitors
5 | 17.4% | -16.4%
9 | 3.5% | -17.3%
4 | 2.7% | 52.3%*
14 | 1.0% | .
12 | 0.4% | .
2 | -1.1% | -4.5%

# Limited to Siah-1 displacement, XIAP antagonists and P. falciparum M17LAP, for some of the entries so far:
nr	compound	Siah-1 displacement	XIAP antagonists	P. falciparum M17LAP
8	Cc1ccc(C(C[N+](=O)[O-])c2c(-c3ccccc3O)[nH][nH]c2=O)cc1 (configuration not stated)	-1.3%	-3.8%	33.7%
9	NC(=S)c1cc2ccc(O)cc2oc1=O	3.5%	-9.0%	-62.9%
